# Vif A3G = HIV-1 Vif–A3G interaction blockers – biochemical, TR-FRET, GST-Vif 1-94, biotin-A3G peptide, dose response retest, primary screen (AID 1117319); inhibition, %; hits with a dose series show IC50 in µM; 260,000 compounds, 0.57% hits; TR-FRET GST-Vif / biotin-A3G peptide binding; higher % means a stronger effect; test concentration not given here; strong numbers were not always called active;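 active means above the screen mean plus three standard deviations and confirmed in dose response; inconclusive means results disagree or hit not tested in dose response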;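 further: Vif residues 1-94 fused to GST binding biotinylated APOBEC3G peptide 110-148; 0% = full assay without inhibitor and 100% = GST in place of GST-Vif; retest series ran down from 100 µM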
# ALR H2O2 inh = inhibitors of human sulfhydryl oxidase ALR | purified ALR, DTT oxidation, H2O2 HRP-luminol luminescence | P55789 | inhibition, % (concentration not given with the values) | 290,000 compounds, 3.8% hits;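 active means mean and each replicate at 75% or more; inconclusive means only one of the two met; inactive means neither met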;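 further: stock transfer was 7.5 nL into about 7.5 µL; 0% = neutral wells and 100% = wells with inactivated enzyme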
# Target sequence (P55789 whole entry, looked up): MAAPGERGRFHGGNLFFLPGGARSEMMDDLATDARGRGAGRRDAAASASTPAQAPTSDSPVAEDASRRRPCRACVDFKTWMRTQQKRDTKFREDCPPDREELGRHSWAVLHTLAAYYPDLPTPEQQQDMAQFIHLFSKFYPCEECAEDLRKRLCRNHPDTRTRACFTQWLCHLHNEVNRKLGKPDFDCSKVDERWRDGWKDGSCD
# HNF4A DNA FP = change in binding of human HNF4 alpha to DNA; activity change, % at 10 µM; HNF4a-FITC DNA binding, fluorescence polarization, 1 h; 360,000 compounds, 0.3% hits; P41235; in the data active means activity change above about 30%, passing the limit was not always enough;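 further: controls were the assay level and a saturating level of protein; the project sought stronger binding though the title names inhibitors; some compounds called inactive have numbers as strong as hits; positive values seem to mean higher polarization but the record does not say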
# FGF22 binding = binders of recombinant human FGF22 by thermal shift | Q9HCT0 | SYPRO orange fluorescence; percent of sucrose octasulfate shift, DMSO zero | calls only at 9.99 µM | 340,000 compounds, 1.5% hits | AID 651658;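 active means melting point raised past a set limit in the mean and every replicate; inconclusive means no clear call; three in four hits are not shown here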
# Target sequence (Q9HCT0 whole entry, looked up): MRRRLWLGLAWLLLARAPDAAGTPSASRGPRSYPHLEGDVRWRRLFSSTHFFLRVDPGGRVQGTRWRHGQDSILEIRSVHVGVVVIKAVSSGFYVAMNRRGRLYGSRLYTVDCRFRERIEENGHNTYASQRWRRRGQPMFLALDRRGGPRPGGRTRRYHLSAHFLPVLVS
# E coli growth = E. coli growth inhibition. Escherichia coli growth, OD600, 23 h; stronger effect = lower value. OD600 absorbance (test concentration not listed). 330,000 compounds, 0.21% hits. AID 1053175;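 active means OD600 absorbance below the run mean of sample wells minus 3.6 SD, in any replicate, cut at about 0.56 in these data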;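 further: stock transfer was 300 nL into about 60 µL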
# rRNA inh HTS = inhibitors of bacterial rRNA selective over humanized ribosomes; AID 720706; E. coli WT GFP vs humanized-ribosome RFP mutants, fluorescence, 24 h; stronger effect = lower value; DMSO median 0, no signal -100; GFP signal change (wild-type ribosome), % (no concentration beside the values); 350,000 compounds, 1.6% hits;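 active means significant combined selectivity score with lowered wild-type GFP, culture density cut under 30%, mutant RFP and density less affected; inactive means any of these conditions unmet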; further: one replicate is shown; some compounds called inactive have numbers as strong as hits
# AF4-AF9 inh = inhibitors of human MLL-AF4/AF9 interaction; P42568; AlphaScreen, biotin-AF4 peptide binding to FLAG-AF9; inhibition, % at 10 µM; 350,000 compounds, 0.47% hits;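 active means every replicate reaching a set inhibition limit, whatever the replicate mean, cut at about 25% in these data; inconclusive means mean inhibition reaches that limit but some replicates miss it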;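 further: 0% = plate neutral control median and 100% = total signal loss; the record names both 10 and 1 µM as test concentration; the first replicate is given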
# Target sequence (P42568 whole entry, looked up): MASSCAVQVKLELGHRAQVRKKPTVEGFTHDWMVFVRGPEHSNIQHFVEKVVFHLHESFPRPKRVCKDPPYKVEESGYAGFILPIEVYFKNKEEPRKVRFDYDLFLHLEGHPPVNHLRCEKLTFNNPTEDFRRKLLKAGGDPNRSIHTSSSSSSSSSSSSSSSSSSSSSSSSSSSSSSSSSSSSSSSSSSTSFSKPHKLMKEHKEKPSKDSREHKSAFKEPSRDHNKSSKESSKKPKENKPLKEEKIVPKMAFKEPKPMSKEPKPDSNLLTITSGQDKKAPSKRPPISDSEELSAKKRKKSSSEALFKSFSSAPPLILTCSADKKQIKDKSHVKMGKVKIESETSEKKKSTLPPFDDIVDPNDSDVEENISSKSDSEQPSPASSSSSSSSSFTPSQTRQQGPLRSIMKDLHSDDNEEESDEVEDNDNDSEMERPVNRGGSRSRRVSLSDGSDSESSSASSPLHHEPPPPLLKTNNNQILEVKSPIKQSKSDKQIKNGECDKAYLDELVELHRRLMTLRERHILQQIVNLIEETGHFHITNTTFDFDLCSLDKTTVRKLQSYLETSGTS
# rRNA inh HTS OD600 = further read-out of rRNA inh HTS, marked with its call; OD600 change, %; measured here: OD600 growth;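 optical density of the mix in the first replicate; 0 = DMSO median and -100 = no signal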
# rRNA inh HTS RFP = second read-out of rRNA inh HTS, no call of its own (marks repeat the call); RFP signal change, %; measured here: RFP humanized mutant strains;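 first replicate; 0 = DMSO median and -100 = no signal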
# Numbers without * were called inactive; i = inactive; ? = inconclusive; nt = not tested or not shown; & = joins results of further samples. These rows are one share of the data; count on the stated rates, not on these rows.
SMILES,Vif A3G,ALR H2O2 inh,HNF4A DNA FP,FGF22 binding,E coli growth,rRNA inh HTS,rRNA inh HTS OD600,rRNA inh HTS RFP,AF4-AF9 inh
O=C(c1ccc(CN2CCc3ccccc3C2)cc1)N1CCN(c2ccc(F)cc2)CC1,-3%,15,-1.3,nt,0.67,nt,nt,nt,nt
C=CCSc1nnc(-c2cnn(-c3ccccc3)c2-n2cccc2)n1C,9%,2,-1.0,nt,0.71,nt,nt,nt,nt
COC(=O)C(NC(=O)CCC(=O)NC(C(=O)OC)c1ccccc1)c1ccccc1 (centres undefined),nt,-2,4.6,i,0.7&0.71,4,1,-2.3,-4.3
Cc1ccc(S(=O)(=O)[N-]c2nc3ccccc3nc2-n2cc[n+](Cc3ccccc3)c2)cc1,?,-24,-3.4,i,0.7,-30,-60,0.8,-2.3
CC(OC(=O)CCC(=O)c1cccs1)C(=O)Nc1ccccc1[N+](=O)[O-] (centres undefined),-6%,-6,-1.8,i,0.7,-2,-11,-2.6,1.1
Cc1cc(N/N=C/c2ccc(F)cc2)nc(NCc2ccccc2)n1,-12%,1,3.8,i,nt,-48,-45,-15,nt
C[C@H]1CN([C@@H](C)CO)C(=O)c2cccc(NC(=O)Nc3ccc(F)cc3)c2O[C@H]1CN(C)C(=O)NC1CCCCC1,nt,nt,nt,i,nt,0,-7,-1.0,3.6
O=C(CSc1cn[nH]n1)Nc1ccc(O)c(C(=O)O)c1,nt,-12,-4.3,i,0.66,9,1,1.7,-12
CO[C@@H]1CN(C)C(=O)c2cc(NC(=O)Cc3ccccc3)ccc2OC[C@H](C)N(C)C[C@@H]1C,nt,nt,nt,i,nt,0,-3,0.8,-0.1
COc1cc(C(=O)Nc2cc(C)ccc2C)ccc1OCc1c(C)noc1C,-9%,nt,-4.8,i,0.66,9,24,0.1,-3.8
O=S(=O)(Cc1ccccc1)N1CCCCN2[C@H](C1)[C@@H](c1ccc(C#Cc3ccccc3)cc1)[C@@H]2CO,nt,nt,nt,i,nt,3,21,-0.2,-7.6
CCc1ccc(NC(=O)c2ccccc2NC(=O)C2CCCO2)cc1 (centres undefined),2%,-11,4.4,nt,0.6,nt,nt,nt,nt
CCNC(=O)C[C@@H]1CC[C@H]2[C@@H](COc3ccc(NC(=O)Cc4cccs4)cc3C(=O)N2C)O1,nt,nt,nt,i,nt,2,5,-0.9,-0.5
Cc1nc(SCC(=O)Nc2cccnc2Cl)nc(C)c1C,2%,-3,-4.3,i,0.68,9,5,2.8,-2.3
COc1ccc2[nH]c3c(c2c1)CCN1C(=O)C(CC(=O)NCCCN(C)C)C[C@H](C(=O)N2CCOCC2)[C@@]31CCC1CCCC1 (some centres undefined),0%,nt,-1.5,i,0.7,14,4,3.0,7.0
COc1cccc(S(=O)(=O)Nc2ccc3c(c2)[C@@H]2C[C@H](CC(=O)N(C)C)O[C@@H](CO)[C@@H]2O3)c1,nt,nt,nt,i,nt,-7,-14,-4.7,0.6
CC(=O)N/C(=C\c1ccc(C)o1)C(=O)NCc1ccccc1,nt,nt,6.6,i,0.66,8,2,37,-6.9
C=C1C[C@H](O[C@@H]2O[C@H](CO)[C@@H](O)[C@H](O)[C@H]2O)[C@@H]2[C@H](OC(=O)[C@H]2C)[C@H]2[C@H](C)[C@H](O)C[C@@H]12,nt,-7,5.1,i,nt,5,10,-1.3,-3.9
CCOC(=O)C(Cc1ccccc1)c1ccnc2ncnn12 (centres undefined),-5%,-7,-4.1,i,0.69,6,4,-2.2,-8.0
CCc1ccccc1NC(=O)c1ccc2nc(N3CCOCC3)sc2c1,nt,nt,1.1,i,0.68,0,1,2.0,0.7
Clc1ccccc1N/N=C/c1ccc2c(c1)OCO2,nt,99*,-0.3,i,nt,-6,-16,9.4,16
COc1cccc(CN(C)C(=O)CSCC(=O)Nc2cc(C)on2)c1OC,-4%,nt,1.9,i,0.65,1,8,0.5,8.5
COc1ccc(Br)cc1/C=c1\sc2nc(-c3ccco3)nn2c1=O,-3%,4,-28,nt,nt,nt,nt,nt,nt
COc1ccc(CN(C)C[C@H]2Oc3c(NC(=O)Nc4ccc5c(c4)OCO5)cccc3C(=O)N([C@@H](C)CO)C[C@@H]2C)cc1,nt,nt,nt,i,nt,-7,-3,0.4,-7.1
COc1ccccc1NC(=O)COC(=O)CN1C(=O)C(=O)c2ccccc21,nt,nt,-1.5,i,0.65,1,0,-2.7,0.9
CCN(CC)C(=O)Oc1ccc(NC(C)=O)cc1,-1%,-28,-1.0,nt,0.71,nt,nt,nt,nt
Cc1ccc(C)c(S(=O)(=O)N2CCN(C(=O)CCNS(=O)(=O)c3ccc(C)c(C)c3)CC2)c1,nt,-9,-2.4,i,nt,1,-14,13,-1.1
CCOc1ccc(-c2c(C(=O)N/N=C/c3ccc(C)cc3)nnn2-c2nonc2N)cc1,?,nt,0.7,i,nt,10,6,-2.3,-2.5
N#C[C@@H]1[C@H](c2ccccc2/C=C/c2ccccc2)[C@H](CO)N1S(=O)(=O)c1ccccc1,nt,nt,nt,i,nt,-5,-4,-1.9,-0.6
Cc1ccc2nc(-c3ccc(NC(=O)CSc4nccc(=O)[nH]4)cc3)sc2c1,nt,-3,-0.5,i,nt,0,1,1.6,-0.2

# Random excerpt: two compounds from above
SMILES,Vif A3G,ALR H2O2 inh,HNF4A DNA FP,FGF22 binding,E coli growth,rRNA inh HTS,rRNA inh HTS OD600,rRNA inh HTS RFP,AF4-AF9 inh
COc1cc(C(=O)Nc2cc(C)ccc2C)ccc1OCc1c(C)noc1C,-9%,nt,-4.8,i,0.66,9,24,0.1,-3.8
COC(=O)C(NC(=O)CCC(=O)NC(C(=O)OC)c1ccccc1)c1ccccc1 (centres undefined),nt,-2,4.6,i,0.7&0.71,4,1,-2.3,-4.3

# Following part:
SMILES,Vif A3G,ALR H2O2 inh,HNF4A DNA FP,FGF22 binding,E coli growth,rRNA inh HTS,rRNA inh HTS OD600,rRNA inh HTS RFP,AF4-AF9 inh
CCNC(=O)C[C@@H]1CC[C@H]2[C@@H](COC[C@@H](O)CN2C(=O)c2cc(Cl)cc(Cl)c2)O1,nt,nt,nt,i,nt,-4,5,-1.8,-5.5
Cn1c(N)c(C(=O)COC(=O)C2CCCN2C(=O)c2cccs2)c(=O)n(C)c1=O (centres undefined),-3%,3,-1.9,i,0.64,3,-6,-1.5,0.6
Cc1cccc(CSc2nnc([C@@H]3CCCN3)o2)c1,nt,nt,3.6,i,0.7,nt,nt,nt,-0.1
COc1ccc(CC(=O)NNC(=S)Nc2ccccc2)cc1Cl,33%,7,0.7,nt,0.7,-27*,-19*,3.9*,-0.6
CCN(CC)CCN(Cc1cc2cc3c(cc2[nH]c1=O)OCO3)C(=S)NCCOC,nt,nt,-2.7,i,0.63,3,8,-1.4,-13
Cc1ccc(NS(=O)(=O)c2cc3c(cc2Br)NC(=O)CO3)cc1C,nt,nt,1.7,i,nt,-54,-82,-21,-1.2
CCCC[C@@H]1CNC(=S)N1CCc1cccc2ccccc12,67%,nt,5.3,i,nt,-20,-23,8.7,3.0
O=C(CSc1nc(NS(=O)(=O)c2ccccc2)cc(=O)[nH]1)Nc1ccccc1Cl,2%,nt,1.2,i,0.67,2,5,-1.7,0.5
COc1ccc(S(=O)(=O)Nc2c3ccccc3nc(=O)n2-c2ccccc2)cc1,0%,-9,-0.3,nt,0.75,nt,nt,nt,nt
CCCCC(=O)NCc1ccccc1Cl,nt,-4,-1.8,i,0.69,7,7,1.1,-0.5
O=C(NCCc1ccccc1)c1ncn[nH]1,28%,-9,1.5,nt,0.72,nt,nt,nt,nt
CCCC[C@@H]1CNC(=S)N1CC1CCCCC1,4%,nt,-3.7,i,nt,-7,-17,5.6,1.6
COc1ccc(N/C(N)=N/c2nc(CSc3ccc(C)cc3)cc(=O)[nH]2)cc1,-8%,-2,-2.9,nt,0.73,nt,nt,nt,nt
COc1ccc2c3c(n(C)c2c1)[C@@H](CO)N(C(C)=O)CC31CCN(C(=O)c2cnccn2)CC1,nt,nt,nt,i,nt,0,4,-1.5,2.4
Cc1cc(C)c2nc(N3CCC(C(=O)NCCCN4CCCCC4)CC3)sc2c1,6%,23,-1.1,nt,0.68,nt,nt,nt,nt

# Full records, looked up by structure.
# Record of Cc1cccc(CSc2nnc([C@@H]3CCCN3)o2)c1 → Vif A3G = nt; ALR H2O2 inh = nt; HNF4A DNA FP = 3.6; FGF22 binding = i; E coli growth = 0.7; rRNA inh HTS = nt; rRNA inh HTS OD600 = nt; rRNA inh HTS RFP = nt; AF4-AF9 inh = -0.1
# Record of COc1ccc(N/C(N)=N/c2nc(CSc3ccc(C)cc3)cc(=O)[nH]2)cc1 → Vif A3G = -8%; ALR H2O2 inh = -2; HNF4A DNA FP = -2.9; FGF22 binding = nt; E coli growth = 0.73; rRNA inh HTS = nt; rRNA inh HTS OD600 = nt; rRNA inh HTS RFP = nt; AF4-AF9 inh = nt

# Next entries follow.
SMILES,Vif A3G,ALR H2O2 inh,HNF4A DNA FP,FGF22 binding,E coli growth,rRNA inh HTS,rRNA inh HTS OD600,rRNA inh HTS RFP,AF4-AF9 inh
COc1ccc(S(=O)(=O)N2CCN(C3CC4CCC3C4)CC2)cc1 (centres undefined),nt,4,0.6,i,0.65,2,1,-0.6,-1.6
COc1cccc(-c2cnc3c(NC=O)cc(-c4cc(C)c(O)c(C)c4)cn23)c1,nt,nt,6.9,i,nt,-5,-9,2.4,-2.7
CCNC(=O)CSc1nnc(-c2cccs2)o1,nt,-1,3.3,i,0.67,6,-2,2.4,-2.0
CCN(CC)c1nc(C(F)(F)F)nc2c1nnn2Cc1ccccc1,-4%,1,-2.9,i,0.7,3,0,-0.3,-3.8
COc1cccc(/C=C/C(=O)OCC(=O)c2ccc(S(=O)(=O)N3CCCCC3)cc2)c1OC,nt,-4,2.1,i,nt,3,0,-2.3,-0.5
C[C@H](O)C#Cc1cnc2c(c1)C(=O)N([C@@H](C)CO)C[C@@H](C)[C@H](CN(C)Cc1ccc(-c3ccccc3)cc1)O2,nt,nt,nt,i,nt,0,-6,4.2,6.5
COc1ccc(S(=O)(=O)N(C)C[C@H]2Oc3ccc(NS(=O)(=O)c4c(C)noc4C)cc3C(=O)N([C@@H](C)CO)C[C@@H]2C)cc1,nt,nt,nt,i,nt,-3,3,-0.4,-0.6
O=C(CN1CCN(C(=O)c2ccccc2Cl)CC1)Nc1cccc(S(=O)(=O)N2CCCC2)c1,nt,nt,2.2,i,0.69,2,2,-0.2,3.6
COc1ccc2c3c([nH]c2c1)[C@@H](CO)N(C(=O)CN(C)C)CC31CCN(C(=O)c2cccnc2)CC1,nt,nt,nt,i,nt,2,16,-1.9,-1.1
O=C(C[C@@H]1C=C[C@@H](NC(=O)Cc2cccnc2)[C@@H](CO)O1)NCc1ccc2c(c1)OCO2,nt,nt,nt,i,nt,-4,10,-3.6,-1.5
CCCCNc1c(-c2cccc(SC(C)CC)c2)nc2ccc(Cl)cn12 (centres undefined),nt,38,5.8&11,i,0.8,-3,-7,7.0,10&4.9
Cc1nnc(SC(C)C(=O)Nc2ccc(Cl)cn2)n1Cc1ccccc1 (centres undefined),-1%,0,-0.3,nt,0.71,-2,-9,-6.6,-8.0
COc1cccc2c1OC1(C)CC2/C(=C(\C)O)C(=O)N1 (centres undefined),4%,5,1.2,nt,0.74,nt,nt,nt,nt
COc1ccc(S(=O)(=O)N2CCC(C(=O)N3CCCCC3)CC2)cc1OC,-14%,nt,3.8,nt,0.67,nt,nt,nt,nt
COc1cccc(C(=O)Nc2ccc3c(c2)C(=O)N(C)[C@@H]2CC[C@H](CC(=O)N[C@H](C)c4ccccc4)O[C@@H]2CO3)c1,nt,nt,nt,i,nt,-5,2,2.7,-1.2
c1ccc2c(c1)nc(Nc1ccc3c(c1)OCO3)c1nnnn12,15%,44,3.0,nt,0.79,nt,nt,nt,nt
